# Source: PubChem
# RE007 growth inh = less growth of the S. pombe RE007 Vpr strain. S. pombe RE007 Vpr strain, BacTiter-Glo ATP luminescence, 24 h; control for the full effect not named in the record. Potency, µM (highest dose often 92.2 µM), for inactives: top-dose activity change, negative = less growth. 0.21% of 360,000 active; active = well fitted falling curve with a large enough effect; inconclusive = small, poorly fitted or top-dose-only effect; inactive = no such curve, though single readings can be large or run the other way;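 also: nearly all actives have a fitted effect of over 50% in size; the assay follows cell death caused by Vpr and the record does not say whether a fall means rescue or toxicity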
#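 Fission yeast RE007 carrying one integrated HIV-1 vpr copy, seeded at OD 0.01 in PMG+AL medium with 23 nL pinned compound. Grown 24 h at 30 degrees; viability read by BacTiter-Glo luminescence after 5 min.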
# StopGo reporter = FMDV 2A StopGo reporter, luciferase signal; human cells with a luciferase reporter of 2A StopGo recoding; control for the full effect not named in the record; AID 1159524; Potency, µM (titrated, usually from 57.9 µM), inactives show at the top dose signal change, negative = less light; 1.2% of 410,000 active; active = well fitted falling curve with a large enough effect; inconclusive = small, poorly fitted or top-dose-only effect; inactive = no such curve, though single readings can be large or run the other way; tested in HEK293T cells; also: nearly all actives have a fitted effect of over 45% in size; luciferase light after 4 h
# An asterisk follows results filed as active; ? = inconclusive; [ ] = another dose, or the depositor's remark. % is scaled to controls: 0 for no effect and ±100 for the full control effect; potency is read from the fitted curve at half-maximal effect. An excerpt (hit frequency here may not be typical).
1) COc1cccc(C(C)(O)c2nc(-c3ccc(OC)c(OC)c3)cs2)c1 (stereo not drawn)
2) CCCCNC(=O)C[C@@H]1C[C@@]2(C(=O)OC)CC(C)(C)CC=C2N(Cc2ccc3c(c2)OCO3)C1=O
3) CCOC(=O)C1=CC[C@@H](c2ccccc2)N(S(=O)(=O)c2ccc(C)cc2)[C@H]1c1ccc(C#N)cc1
4) Cc1cc2c(cc1C)N1C(=O)c3cc4ccccc4cc3NC(=O)C1C(=O)N2 (stereo not drawn)
5) O=C1NC(Cc2ccc(O)cc2)c2nc3cc(Cl)ccc3c(=O)n2-c2ncccc21 (stereo not drawn)
6) COc1ccccc1CNc1nc(NCc2ccccc2SC)c2sccc2n1
7) CCC(=O)N1CCC(C)(C(=O)NCc2cccc(OC)c2)C1 (stereo not drawn)
8) C[C@@H]1CN([C@H](C)CO)C(=O)CCCn2nncc2CO[C@@H]1CN(C)C(=O)c1ccc(N2CCN(C)CC2)cc1

Assay by compound	1	2	3	4	5	6	7	8
RE007 growth inh	-7.0%[18.4 µM]	1.9%	8.6%	8.7%	-7.4%	?	2.4%[18.4 µM]	2.0%
StopGo reporter	?	0.4%	-27.2%	3.4%	?	?	-0.4%	-16.1%

# Part of the list above, as labelled records.
1: COc1cccc(C(C)(O)c2nc(-c3ccc(OC)c(OC)c3)cs2)c1 (stereo not drawn)
- RE007 growth inh: -7.0%[18.4 µM]
- StopGo reporter: ?
2: CCCCNC(=O)C[C@@H]1C[C@@]2(C(=O)OC)CC(C)(C)CC=C2N(Cc2ccc3c(c2)OCO3)C1=O
- RE007 growth inh: 1.9%
- StopGo reporter: 0.4%
3: CCOC(=O)C1=CC[C@@H](c2ccccc2)N(S(=O)(=O)c2ccc(C)cc2)[C@H]1c1ccc(C#N)cc1
- RE007 growth inh: 8.6%
- StopGo reporter: -27.2%
4: Cc1cc2c(cc1C)N1C(=O)c3cc4ccccc4cc3NC(=O)C1C(=O)N2 (stereo not drawn)
- RE007 growth inh: 8.7%
- StopGo reporter: 3.4%

# (next part)
9) CCN(CC)C(=O)c1cccc(-c2csc(C(C)(O)c3ccncc3)n2)c1 (stereo not drawn)
10) COc1ccc(NC(=S)N2CCC(C(=O)c3ccc(Cl)cc3)CC2)cc1
11) COc1ccc(CNC[C@H]2O[C@@H](n3ccc(=O)[nH]c3=O)[C@H](O)[C@@H]2O)cc1
12) CC(C)Nc1nc(NCCN2CCCC2)c2sc(-c3ccccc3)cc2n1
13) CC(C)Nc1nc(Nc2ccc(C(N)=O)cc2)c2sccc2n1
14) Cc1cc(NC(=O)COc2ccc3c(C)c(C)c(=O)oc3c2)no1
15) COc1ccc(NC(=O)CN(C)C(=O)c2ccc(S(=O)(=O)N3CCOCC3)cc2)cc1
16) CC1=C(C(=O)N2CCCCCC2)CC(CC(=O)NCCN2CCOCC2)C(=O)N1Cc1ccccc1 (stereo not drawn)

Assay by compound	9	10	11	12	13	14	15	16
RE007 growth inh	0.4%[18.4 µM]	5.4%	-1.5%	-17.4%[18.4 µM]	-23.2%	0.4%	-12.5%	-8.1%
StopGo reporter	25.1µM*	13.4%	-17.4%	-8.0%	-13.6%	-4.1%	-25.1%	-17.4%

17) CC1(C(=O)Nc2ccc3c(c2)OCO3)CCN1C(=O)CC1CC1 (stereo not drawn)
18) O=C(NCc1cccc(C(F)(F)F)c1)c1[nH]c(C(F)(F)F)nc1-c1ccccc1
19) Cc1nc(C(=O)O)cc([N+](=O)[O-])c1C
20) OC[C@@H]1CN(Cc2ccc(-c3ccccc3)cc2)C[C@H](n2cnc3c(NCc4ccncc4)ncnc32)O1
21) COc1cc(NC(=O)c2ccccc2[N+](=O)[O-])ccc1NC(=O)c1cc2ccccc2o1
22) CC1=CC(c2ccc(Cl)cc2)n2ncnc2N1 (stereo not drawn)
23) CCC1=CC(c2ccccc2)n2ncnc2N1 (stereo not drawn)
24) CCOc1ccc(CCN2C(=S)N([C@@H](CC(C)C)CN3CCCC3CN3C(=S)NC[C@@H]3Cc3ccc(O)cc3)C[C@@H]2Cc2ccccc2)cc1 (stereo partly drawn)

Assay by compound	17	18	19	20	21	22	23	24
RE007 growth inh	-5.1%	-11.0%	-4.7%	-10.8%	-4.4%	0.0%	15.2%	-26.0%
StopGo reporter	-20.1%	?	-20.2%	-4.0%	-9.5%	3.1%	-5.0%	-26.2%

25) O=C(OCC(=O)N1CCOCC1)c1cncc(Br)c1
26) CC1CC(=O)Nc2ccccc2N1C(=O)COc1ccccc1C(N)=O (stereo not drawn)
27) COc1ccc(OCCN2CCC(C(=O)NC(c3ccc(OC)cc3)c3ccccn3)CC2)cc1 (stereo not drawn)
28) O=S(=O)(Nc1ccc(Br)cc1)c1cccc(NS(=O)(=O)c2cccs2)c1
29) CCOC(=O)C1=CCN(S(=O)(=O)c2ccc(F)cc2)C1c1cccc(F)c1 (stereo not drawn)
30) C[C@@H]1CN([C@H](C)CO)C(=O)CCCn2cc(nn2)CO[C@H]1CN(C)C(=O)Nc1ccccc1F
31) CCC(c1nnnn1-c1ccc(OC)cc1)N1CCC(n2c(=O)[nH]c3ccccc32)CC1 (stereo not drawn)
32) CN(Cc1ccccc1)C(=O)c1[nH]cnc1C(=O)Nc1ccc(Br)cc1F

Assay by compound	25	26	27	28	29	30	31	32
RE007 growth inh	10.0%	-4.3%	-1.1%	1.7%	1.4%	-3.7%	5.8%	-22.7%
StopGo reporter	-10.1%	-18.6%	2.4%	31.9%[activator]	-25.5%	-4.2%	-20.4%	-23.5%

33) CCOC(=O)c1ccc(Nc2cc3ccccc3c(=O)[nH]2)cc1
34) O=C(N[C@@H](c1ccccc1)[C@H](O)c1ccccc1)[C@@H]1CCCN1C(=O)OCc1ccccc1
35) O=CNc1cc(-c2ccoc2)cn2c(-c3ccc(F)cc3)cnc12
36) COc1ccc(S(=O)(=O)N2CCCCC2c2cc(C(=O)Nc3ccccc3)no2)cc1 (stereo not drawn)
37) CC(C)(O)CCc1c(-c2ccc(O)cc2O)oc2c3c(cc(O)c2c1=O)OC(C)(C)C=C3
38) O=c1[nH][nH]c2c1C(C1CCCCC1)OC(C1CCCCC1)C2 (stereo not drawn)
39) C=C(C1=CCN(S(=O)C(C)(C)C)[C@@H]1CCO)c1ccccc1 (stereo partly drawn)
40) C#CCNC(=O)c1cc(-c2ccccc2)sc1N

Assay by compound	33	34	35	36	37	38	39	40
RE007 growth inh	-4.8%	9.7%	5.3%[18.4 µM]	13.7%	0.9%	-9.5%	5.2%	-3.9%
StopGo reporter	16.1%	-11.9%	-11.0%	-1.2%	-19.5%	-19.7%	-20.8%	15.2%

41) Cn1ccc2c(-c3cccc(C=O)c3)cc3c(c21)C1CCC3C1 (stereo not drawn)
42) COc1ccc(/C=C/C(=O)NCc2ccc3c(c2)OCO3)cc1OC
43) CCCN1CCC(C)(C(=O)Nc2cccc(OC(C)C)c2)C1 (stereo not drawn)
44) S=c1[nH]nc2ccccn12
45) CC(C)(C)OC(=O)N1CCN(C(c2ccnc3ccccc23)c2nnnn2-c2ccc3c(c2)OCCO3)CC1 (stereo not drawn)
46) C[C@H](CCC(=O)NCC(=O)O)[C@H]1CC[C@H]2C3[C@H](O)C[C@@H]4C[C@H](O)CC[C@]4(C)[C@H]3C[C@H](O)[C@]12C (stereo partly drawn)
47) CC=CCn1c(SCc2ccccc2)nc2c1c(=O)[nH]c(=O)n2C
48) COc1cccc(OCC(=O)NCCS(=O)(=O)N2CCN(c3ccccc3)CC2)c1

Assay by compound	41	42	43	44	45	46	47	48
RE007 growth inh	-1.4%	5.6%	2.6%[18.4 µM]	4.3%	3.5%	0.5%[18.4 µM]	-15.3%	0.0%
StopGo reporter	-27.2%	26.8%	-18.5%	-11.1%	-5.2%	-18.2%	-8.1%	-1.8%

49) Cc1ccc(CN2CCC(C)(Oc3cccc(Cl)c3)C2)cc1 (stereo not drawn)
50) C=CCNC(=O)CN1C(=O)CSc2ccc(S(=O)(=O)N3CCOCC3)cc21
51) CCc1nc2ccc(C(=O)NCCCn3ccnc3)cn2c1N(CC)C(=O)NCCc1ccccc1
52) CC1(C(=O)NCc2ccccc2)CN(S(C)(=O)=O)CC(=O)N1CCCn1ccnc1 (stereo not drawn)
53) COC(=O)C1=CN(c2ccc(C(C)(C)C)cc2)C(N)=C(C#N)C1c1cccc([N+](=O)[O-])c1 (stereo not drawn)
54) CCOC(=O)c1c[nH]n2c(=S)ncnc12
55) O=C(NCc1ccccc1)C1C(c2ccccc2)=Nc2ccccc2N1C(=O)c1ccncc1 (stereo not drawn)
56) CC1(C(=O)O)CCCN(C(=O)C2(c3ccc(Cl)cc3)CCCC2)C1 (stereo not drawn)

Assay by compound	49	50	51	52	53	54	55	56
RE007 growth inh	-21.5%	14.9%	-22.2%	-0.1%	-18.8%	6.5%	14.0%	7.2%
StopGo reporter	-16.8%	-17.1%	15.1%	4.1%	33.9%[activator]	-18.0%	8.2%	-15.6%

57) CC(C)(C)C1CCC(=O)N2CCC[C@]2(c2ccccc2)C1 (stereo partly drawn)
58) CN(C)c1ccc(CC(=O)N2CCCC(c3cc(C(=O)Nc4ccc(F)c(Cl)c4)no3)C2)cc1 (stereo not drawn)
59) CCC1NC(=O)c2cc3ccccc3cc2-n2c1nc1ccc(F)cc1c2=O (stereo not drawn)
60) CC(C)(C)C(C(=O)NCc1ccccc1)N1CCN(CCN2CCOCC2)CC1 (stereo not drawn)
61) CCN(CC)S(=O)(=O)c1ccc(SCC(=O)c2c(N)n(C3CC3)c(=O)[nH]c2=O)nc1
62) O=C1CNc2cc(Cl)ccc2N1
63) COc1ccc(C(=O)OCC2CN2c2cccc([N+](=O)[O-])c2)cc1 (stereo not drawn)
64) C[C@H](CO)N1C[C@H](C)[C@@H](CN(C)S(=O)(=O)c2ccc(Oc3ccccc3)cc2)OCc2cnnn2CCCC1=O

Assay by compound	57	58	59	60	61	62	63	64
RE007 growth inh	-14.5%	-15.1%[18.4 µM]	-4.0%	8.1%	-2.4%	-16.4%	-14.7%	5.9%
StopGo reporter	-24.9%	-9.9%	0.0%	-10.5%	-10.9%	34.7%[activator]	-19.6%	-18.2%

65) C/C(=N\OCC(=O)OC(C)C(=O)Nc1ccc(C)c(S(=O)(=O)N2CCOCC2)c1)c1ccc2c(c1)OCO2 (stereo not drawn)
66) COc1c(OP2(=S)OCC(C)(C)CO2)cnn(C2CCCCC2)c1=O
67) CC(C)NC(=O)C1(C)CCN1Cc1ccc(Cl)cc1 (stereo not drawn)
68) CC(=O)Oc1ccccc1Cn1c(C)c(C(=O)N(C)Cc2ccc(F)cc2)sc1=O
69) CCOC(=O)CCCN(c1[nH]c(C)c(C)c1C#N)S(=O)(=O)c1ccc(C)cc1
70) Cc1ccccc1OCCC(=O)Nc1cc(S(=O)(=O)N2CCCCC2)ccc1N1CCN(C)CC1
71) COc1ccccc1Cc1c(-c2ccco2)nc2ccc(Cl)cn12
72) COC1=Nc2ccccc2N2CCN=C12

Assay by compound	65	66	67	68	69	70	71	72
RE007 growth inh	6.8%	-16.0%	0.7%[18.4 µM]	0.4%[18.4 µM]	-3.5%	1.8%	-29.9%	-13.3%[18.4 µM]
StopGo reporter	11.2%	21.0%	-16.1%	?	54.1%[activator]	-16.2%	-27.4%	-3.5%

73) CCOC(=O)[C@]12CCCC=C1N(Cc1ccc(Cl)cc1Cl)C(=O)[C@H](CC(=O)NCc1cccc(C(F)(F)F)c1)C2
74) COc1ccccc1C(=O)Nc1ccnn1C1CCN(C2CCCCC2)CC1
75) CC(C)Oc1ccc(S(=O)(=O)N2CCOCC2)cc1NC(=O)c1ccc(Cl)c(S(=O)(=O)N2CCOCC2)c1
76) CCCCCCCCN1C(=O)[C@H](CC(=O)N2CCN(C(=O)C3CC3)CC2)C[C@@]2(C(=O)OC)CCCCC=C12
77) CCCCN1C(=O)C(CC(=O)NCCCCc2ccccc2)CC(C(=O)N2CCCCCC2)=C1C (stereo not drawn)
78) Cc1ccc(NC(=O)NC(=O)COC(=O)c2ccc(O)cc2O)c(C)c1

Assay by compound	73	74	75	76	77	78
RE007 growth inh	-8.3%	6.3%	-5.5%	0.1%	-20.7%	0.8%
StopGo reporter	-28.2%	-10.8%	-6.6%	-22.9%	0.0%	0.0%

# Three entries from above, with two lines to a compound:
# Every second line gives: RE007 growth inh | StopGo reporter
(74) COc1ccccc1C(=O)Nc1ccnn1C1CCN(C2CCCCC2)CC1
 : 6.3% | -10.8%
(75) CC(C)Oc1ccc(S(=O)(=O)N2CCOCC2)cc1NC(=O)c1ccc(Cl)c(S(=O)(=O)N2CCOCC2)c1
 : -5.5% | -6.6%
(76) CCCCCCCCN1C(=O)[C@H](CC(=O)N2CCN(C(=O)C3CC3)CC2)C[C@@]2(C(=O)OC)CCCCC=C12
 : 0.1% | -22.9%
